High-throughput results: PubChem BioAssay, National Center for Advancing Translational Sciences (NCATS)
Six1-Eya2 blk: blocks human Six1 binding to Eya2; AlphaScreen GST-Six1/His-Eya2 binding, biochemical; hits give low values; control for the full effect not named in the record; activity change, % (test concentration not listed); 360,000 compounds, 0.56% hits; AID 651725; in the data active = activity change below about -65%; inconclusive = about -30% to -65%; inactive = above about -30%; further: on the % scale 0 is the no-effect control and ±100 the full control effect
Target sequence (O00167 whole entry, looked up): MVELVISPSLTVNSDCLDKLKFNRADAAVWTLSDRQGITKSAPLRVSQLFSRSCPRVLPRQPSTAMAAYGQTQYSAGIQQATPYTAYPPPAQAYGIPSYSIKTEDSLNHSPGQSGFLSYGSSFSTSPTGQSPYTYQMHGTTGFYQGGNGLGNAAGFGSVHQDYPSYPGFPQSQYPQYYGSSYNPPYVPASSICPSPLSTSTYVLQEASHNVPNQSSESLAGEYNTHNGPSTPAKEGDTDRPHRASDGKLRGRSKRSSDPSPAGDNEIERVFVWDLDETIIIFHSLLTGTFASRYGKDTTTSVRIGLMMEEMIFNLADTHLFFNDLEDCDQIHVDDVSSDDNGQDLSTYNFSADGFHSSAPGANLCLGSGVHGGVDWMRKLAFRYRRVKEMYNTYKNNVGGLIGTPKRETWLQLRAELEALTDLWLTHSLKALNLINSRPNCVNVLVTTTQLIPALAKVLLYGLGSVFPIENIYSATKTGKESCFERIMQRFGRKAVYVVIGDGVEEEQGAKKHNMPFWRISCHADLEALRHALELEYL
Target sequence (Q15475 whole entry, looked up): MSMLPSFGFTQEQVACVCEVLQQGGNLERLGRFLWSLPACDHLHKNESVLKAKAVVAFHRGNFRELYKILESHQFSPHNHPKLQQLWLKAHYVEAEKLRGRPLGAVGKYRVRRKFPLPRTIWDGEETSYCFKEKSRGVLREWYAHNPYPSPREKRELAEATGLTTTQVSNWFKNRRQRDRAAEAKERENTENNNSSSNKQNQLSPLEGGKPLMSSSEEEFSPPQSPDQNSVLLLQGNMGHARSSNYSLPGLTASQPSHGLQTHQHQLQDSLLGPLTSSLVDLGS
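GST-Six1 + His-Eya2 (5X stock: 250/500 nM); Tris pH 8.0, 300 mM NaCl, 0.05% BSA, 0.02% Tween 20; GSH donor/Ni acceptor beads; 1 h 37 °C dark; AlphaScreen readout.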
D2 potentiator: human D2 receptor positive allosteric modulation | P14416 | DiscoveRx D2 beta-arrestin cells, luminescence, 90 min; 100% = 57 uM dopamine signal | potentiation, % (test concentration not listed) | 360,000 compounds, 0.23% hits | AID 624464; active = potentiation of 50% or more; inconclusive = 30% to 50%; inactive = 30% or less;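 further: compound concentration not given in the record; tested on top of an EC20 dose of dopamine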
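PathHunter beta-arrestin assay in DiscoveRx D2 cells. Compounds were added with an EC20 of dopamine (50 nM final) for 90 min at 37 deg C. Luminescence was read 1 h after detection reagent, with 57 uM dopamine as the EC100 control.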
CtBP-E1A blk: CtBP/E1A binding inhibition. AlphaScreen GST-E1A/His-CtBP binding, 1536-well; hits give low values; control for the full effect not named in the record. 340,000 compounds, 0.49% hits. activity change, % (concentration not given with the values). AID 651724; in the data active means activity change below about -65%; inconclusive means about -30% to -65%; inactive means above about -30%; further: on the % scale 0 is the no-effect control and ±100 the full control effect
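Protein mix (5X: 125 nM each GST-E1A, His-CtBP) was incubated with pinned compound 2 h at 37 deg C in dark, in 50 mM Tris pH 8.0 buffer with 300 mM NaCl. Glutathione donor and nickel acceptor beads followed; AlphaScreen signal read after 1 h.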
D2 ag: agonists of human D2 dopamine receptor (beta-arrestin) | 360,000 compounds, 0.084% hits | P14416 | DiscoveRx PathHunter D2 beta-arrestin, luminescence, 90 min; 100% = 57 uM dopamine signal | AID 624465 | activation, % (concentration not given with the values); in the data active = activation above about 40%; inconclusive = about 15% to 40%; inactive = below about 15%; further: the text of the record calls up to 30% inactive
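Agonist mode: compounds alone added to overnight-plated D2 PathHunter cells for 90 min at 37 C, with 57 uM final dopamine (EC100) defining full response. Beta-arrestin recruitment detected by chemiluminescent reagent, read after 1 h at ambient temperature.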
gsp ag: gsp mutant agonism. gsp mutant cells, cAMP HTRF, 30 min; control for the full effect not named in the record. Potency, µM (doses to about 76.9 µM), without a hit: at the highest dose activation (cAMP increase), usual class: activators. 340,000 compounds, 0.13% hits; active = well fitted activation curve with a large enough effect; inconclusive = small, poorly fitted or top-dose-only effect, or another doubt; inactive = no such curve, though single readings can be large or run the other way; cell line not stated here;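 further: phosphodiesterase inhibitor Ro 20-1724 added with compounds to block cAMP breakdown; potency means the concentration at half of the fitted maximal effect; nearly all actives have a fitted effect of over 60% in size; about a fifth of the inactives were tested at one dose only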
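Cells stably selected in G418 were plated at 2000/well, grown 16-24 hr, then given compounds in DMSO with the PDE inhibitor […] (300 uM solution added) for 30 min at 37C; cAMP was read by HTRF.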
gsp antagonist: antagonizes gsp, the McCune-Albright syndrome mutation. 340,000 compounds, 0.4% hits. Potency, µM (doses to about 76.9 µM), for the others: at the highest dose activity change, negative = inhibition, actives largely listed as inhibitors. gsp-mutant cells, cAMP HTRF, 30 min; control for the full effect not named in the record. AID 624288; active = falling curve of any shape with a large fitted effect; inconclusive = falling curve, mostly with a smaller effect; inactive = flat or rising curve; cell line not stated here;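 further: intracellular cAMP measured with PDE inhibitor Ro 20-1724 present during compound exposure; potency means the concentration at half of the fitted maximal effect; on the % scale 0 is the no-effect control and ±100 the full control effect; nearly all actives have a fitted effect of over 65% in size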
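Cells in G418 medium, seeded 16-24 h, 37C; buffer exchange to DPBS + 1 mM CaCl2, 0.5 mM MgCl2, 0.05% BSA; cpds in DMSO + […] (300 uM stock), 30 min 37C; HTRF cAMP detection.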
* marks the source's active call; other numbers are inactive results; ? = inconclusive; / = no result given; [ ] = remark or other dose.

[1] Cc1ccc(S(=O)(=O)N2CCN(C(=O)c3sccc3C)CC2)cc1
[2] CCC1=C(OC(=O)N(CC)CC)N2C(=O)OC(=NCCOC)[C@]2(Cc2ccccc2)[C@H]2C1=CC[C@H]1C(=O)N(CC)C(=O)[C@H]12
[3] COc1ccc(CNC(=O)C2=CCN(S(=O)(=O)c3ccc(C)cc3)CC2)cc1
[4] CCCc1cc(=O)[nH]c(SCC(=O)Nc2ccc(OCc3ccccc3)cc2)n1
[5] Cc1ccc(S(=O)(=O)N2CCOCC2)cc1NC(=O)COC(=O)Cc1ccsc1
[6] CC(C)C1CC(C(=O)Nc2ccccc2)C(=O)O1 (stereo not given)
[7] COC(=O)c1c(/N=C/NOCc2ccc(Cl)cc2)sc2c1CCN(c1ncc(C(F)(F)F)cc1Cl)C2
[8] CCCCN(C)C(=O)CCCc1c[nH]c2ccccc12
[9] O=C(NN=C1CCC(c2ccccc2)CC1)c1cc2c(s1)CCCC2 (stereo not given)
[10] CN(CC(=O)Nc1ccccc1C(F)(F)F)C(=O)c1cc([N+](=O)[O-])ccc1N1CCOCC1
Screen / compound no.	1	2	3	4	5	6	7	8	9	10
Six1-Eya2 blk	7	39	-2	1	-1	-4	-6	-4	-3	5
D2 potentiator	-14	8	4	1	-3	-9	-11	-10	-19	-3
CtBP-E1A blk	-20	1	-2	/	4	3	6	-9	-1	0
D2 ag	-1.6	1.3	0.2	2.1	-4.4	1.8	-2.7	-2.1	-5.8	-0.9
gsp ag	-2%	/	0%[15.4 µM]	?	-6%	-2%[15.4 µM]	-27%	4%	8%	-62%[inhibitor]
gsp antagonist	9%	-16%	-18%	4%	4%	5%	19%	?	15%	-4%

Overlap with the part before: four compounds, followed by the next part.
[7] COC(=O)c1c(/N=C/NOCc2ccc(Cl)cc2)sc2c1CCN(c1ncc(C(F)(F)F)cc1Cl)C2
[8] CCCCN(C)C(=O)CCCc1c[nH]c2ccccc12
[9] O=C(NN=C1CCC(c2ccccc2)CC1)c1cc2c(s1)CCCC2 (stereo not given)
[10] CN(CC(=O)Nc1ccccc1C(F)(F)F)C(=O)c1cc([N+](=O)[O-])ccc1N1CCOCC1
[11] COCCNC(=O)CN(CCc1ccccc1)S(=O)(=O)c1ccc(OC)cc1
[12] COc1ccccc1CNC(=O)COc1ccc(S(=O)(=O)N2CCOCC2)cc1
[13] O=S(=O)(O)c1cc(Cl)cc(N=Nc2ccc(O)cc2O)c1O
[14] Cn1c(SCC(=O)NC(C)(C)C)nc(O)cc1=O
[15] CC(=O)N1CCc2cc(NC(=O)C3(C)CCN3Cc3ccccc3Cl)ccc21 (stereo not given)
[16] Cc1ccc(S(=O)(=O)N2CCN(C(=O)CN3C(=O)NC4(CCCC4)C3=O)CC2)c(C)c1
[17] CN(C)c1c([N+](=O)[O-])ncn1C
[18] COc1ccc(-n2c(SCC(=O)NCC3CCCO3)nc3n[nH]c(C)c3c2=N)cc1 (stereo not given)
[19] Cn1c2ccccc2c2cc(/C=N/NC(=O)c3ccc(N)cc3)ccc21
[20] FC(F)Oc1ccc(NC(=S)NC2CCSc3ccccc32)cc1 (stereo not given)
Screen / compound no.	7	8	9	10	11	12	13	14	15	16	17	18	19	20
Six1-Eya2 blk	-6	-4	-3	5	1	-9	-92*	0	2	5	2	-11	-8	-8
D2 potentiator	-11	-10	-19	-3	-6	-5	-26	0	4	-18	8	-14	-19	?
CtBP-E1A blk	6	-9	-1	0	7	1	-90*	6	0	0	0	-11	-20	5
D2 ag	-2.7	-2.1	-5.8	-0.9	-2.9	-3.3	-9.0	-0.7	6.3	2.4	-5.5	0.8	-5.0	-0.3
gsp ag	-27%	4%	8%	-62%[inhibitor]	-4%	-18%[15.4 µM]	12%	-38%[inhibitor]	/	14%[15.4 µM]	7%	?	?	?
gsp antagonist	19%	?	15%	-4%	2%	5%	-10%	-15%	/	-1%	13%	-7%	-23%	?

[21] CCOC(=O)C1=CN(Cc2cccc(F)c2)S(=O)(=O)NC1c1ccc2ccccc2c1 (stereo not given)
[22] CN(CC(=O)NC1CC1)S(=O)(=O)c1ccc(Br)cc1
[23] CC(Oc1ccc2ccc(=O)oc2c1)C(=O)NC(Cc1c[nH]c2ccc(O)cc12)C(=O)O (stereo not given)
[24] Cc1cc(NC(=O)CSc2nnc(-c3ccccc3C)n2C)no1
[25] CN1CCN(C(c2cccc(C(F)(F)F)c2)c2nnnn2C(C)(C)C)CC1 (stereo not given)
[26] Cc1ccc(S(=O)(=O)Nc2ccccc2)cc1C(=O)N1CCCC1
[27] Cc1cccc(NC(=S)NCCN2CCOCC2)c1C
[28] CCOC(=O)C1=NNC2(CC(=O)N(c3cc(C)cc(C)c3)C2=O)C1 (stereo not given)
[29] CCCOc1ccc(C(=O)NCC(C)(C)N2CCOCC2)cc1
[30] COC(=O)c1c(NC(=O)COC(=O)CNC(=O)c2ccco2)sc(C)c1C
Screen / compound no.	21	22	23	24	25	26	27	28	29	30
Six1-Eya2 blk	-1	14	-9	2	6	8	8	-9	-1	0
D2 potentiator	-4	-4	7	3	-10	7	2	-3	-4	9
CtBP-E1A blk	-2	0	7	1	-3	-25	-6	-3	3	9
D2 ag	-1.9	-3.2	9.1	-2.1	-3.7	-2.7	0.2	-5.5	-12	-1.2
gsp ag	/	0%	/	-9%	-17%	4%	1%	8%	1%[15.4 µM]	-7%
gsp antagonist	-10%	4%	4%	6%	2%	-4%	13%	0%	2%	3%

[31] N=c1c2c3c(sc2nc2n1CCCCC2)CCCCC3
[32] CCc1cccc(C)c1NC(=O)c1cc(C)oc1C
[33] COCCNc1nc2c(c(=O)n(Cc3ccc(OC)cc3)c(=O)n2C)n1C
[34] Nc1cc(C(=O)OCC(=O)NCc2ccc(F)cc2)ccc1Cl
[35] COc1ccc(NC(=O)COC(=O)c2cc(C)oc2C)c([N+](=O)[O-])c1
[36] COc1ccc(/C=N/N=C2\SC(CC(=O)O)C(=O)N2c2ccccc2)c(OC)c1 (stereo not given)
[37] N#Cc1cccc(OC(=O)C2CCN(C(=O)c3ccc(F)cc3)CC2)c1
[38] Cc1nc(-c2ccc([N+](=O)[O-])cc2)nc2[nH]ccc(=O)c12
[39] O=C(Nc1cccc(O)c1)c1cccc(C(=O)Nc2cccc(O)c2)c1
[40] N#Cc1c(NC(=O)CSc2nnc(-c3ccccc3)o2)sc2c1CCCC2
Screen / compound no.	31	32	33	34	35	36	37	38	39	40
Six1-Eya2 blk	-8	-1	-18	-3	-9	2	0	2	-19	-4
D2 potentiator	-12	-9	-10	-5	9	-1	-1	-5	-2	-14
CtBP-E1A blk	0	-1	-13	-5	/	4	0	0	/	-15
D2 ag	-3.2	3.3	-4.6	-2.3	-0.3	-4.2	-1.8	1.5	-2.2	-1.2
gsp ag	13%	-35%[inhibitor]	1%	-102%[inhibitor]	-7%	14%[15.4 µM]	-70%[inhibitor]	24%	-6%	1%
gsp antagonist	-3%[15.4 µM]	-17%	-1%	1%	7%	-22%	/	1%	-6%	22µM*

[41] CCCC12CN3CC(CCC)(CN(C1)C3c1ccco1)C2=O (stereo not given)
[42] COc1ccc(NC(=O)CN2C(=O)C(C)SC(C)C2=O)c(OC)c1 (stereo not given)
[43] CCc1ccc(/C=C2/Sc3ccccc3N(CC(=O)NCCCN3CCOCC3)C2=O)cc1
[44] Cc1ccc(C2=NNC(=Nc3ccc(F)cc3)SC2)cc1
[45] Cc1ccc(-c2n[nH]c(=S)n2/N=C/c2ccncc2)cc1
[46] O=C(c1cccc(-c2nnc(-c3ccccc3)o2)c1)N1CCCCCC1
[47] CC(C)CCNC(=O)NC(=O)COc1ncnc2sccc12
[48] Cc1ccc(-c2nnn(CCC(=O)N3CCCCC3C)n2)cc1 (stereo not given)
[49] CCCC(CCC(=O)Nc1ccc(S(N)(=O)=O)cc1)C(=O)O (stereo not given)
[50] CCOc1ccc(CN2C(=O)CCC2(C)C(=O)NCc2cccnc2)cc1 (stereo not given)
Screen / compound no.	41	42	43	44	45	46	47	48	49	50
Six1-Eya2 blk	13	30	-9	-25	2	-3	-1	-2	0	1
D2 potentiator	-7	-3	-7	-27	-7	0	-12	-4	-8	3
CtBP-E1A blk	3	/	/	-28	/	-12	-5	-14	6	1
D2 ag	-3.5	1.1	-4.2	-8.5	3.6	3.8	-2.0	3.3	-3.7	6.6
gsp ag	19%[15.4 µM]	-7%	-3%	19%[15.4 µM]	-12%[15.4 µM]	28%	-16%	11%	-19%	7%
gsp antagonist	3%	3%	18%	-2%	-22%	-21%	-2%	-8%	12%	-8%

[51] C=CCn1c(SCC(N)=O)nnc1-c1cc(Br)ccc1O
[52] CCCc1cc(C(=O)Nc2nccs2)cs1
[53] CC(c1ccccn1)N(CCN(C)C)C(=S)Nc1ccccc1F (stereo not given)
[54] CCOc1ccc(-n2nc(C(=O)NCCOC)c3ccccc3c2=O)cc1
[55] CC(=O)NC1(c2cccc(F)c2)CCN(C(=O)Nc2ccc(C#N)cc2)CC1
[56] CCOc1ccc(S(=O)(=O)Nc2nc3ccccc3nc2-n2ccc(=NC(=O)c3ccccc3C)cc2)cc1
[57] C=CCOC(=O)C1=C[C@@H](c2ccc(Br)cc2)C[C@@H](OCCCCO)O1
[58] COc1ccccc1-n1nnnc1SCC(=O)N(C)C1CCS(=O)(=O)C1 (stereo not given)
[59] Cc1cccc(-c2nc3ccccc3c(=O)n2NC(=S)N(C)C)c1
[60] COc1ccccc1NC(=O)COc1ccc(C(F)(F)F)cc1[N+](=O)[O-]
[61] CC1CCCC(NC(=O)COC(=O)CCC2CCCC2)C1C (stereo not given)
[62] Cc1noc(C)c1C(=O)Nc1c(F)cc(F)cc1Br
[63] CN(C)CCCn1c(=O)n(Cc2ccccc2)c(=O)c2c3c(sc21)CCCCC3
Screen / compound no.	51	52	53	54	55	56	57	58	59	60	61	62	63
Six1-Eya2 blk	-2	-1	?	3	-2	-9	1	0	9	0	8	2	3
D2 potentiator	-7	-3	-12	1	-7	0	-6	0	-10	0	1	4	-19
CtBP-E1A blk	3	7	?	2	2	0	/	2	3	-1	7	-1	7
D2 ag	-1.2	0.7	-2.7	-0.9	-1.2	0.0	-0.4	-0.6	-3.9	-2.7	-0.3	2.8	-2.5
gsp ag	-26%	-43%[inhibitor]	4%	?	0%	-1%[15.4 µM]	-4%	1%	-6%	11%	-3%	4%	-7%[15.4 µM]
gsp antagonist	2%	-11%	-5%	5%[15.4 µM]	6%	2%	-1%	15%	4%	6%	12%	-5%	6%
